Compound activity deposited in PubChem by National Center for Advancing Translational Sciences (NCATS).
VDR inh = inhibitors of human vitamin D receptor. Potency, µM, without a hit: max response, negative = inhibition, actives largely listed as inhibitors. VDR-SRC2-3 peptide fluorescence polarization, 2 h. AID 504847. 400,000 tested, 0.93% active. P11473; active = well fitted inhibition curve with a large enough effect; inconclusive = small, poorly fitted or top-dose-only effect, or another doubt; inactive = no such curve, though single readings can be large or run the other way; note: series mostly up to about 120 µM
Target sequence (P11473 whole entry, looked up): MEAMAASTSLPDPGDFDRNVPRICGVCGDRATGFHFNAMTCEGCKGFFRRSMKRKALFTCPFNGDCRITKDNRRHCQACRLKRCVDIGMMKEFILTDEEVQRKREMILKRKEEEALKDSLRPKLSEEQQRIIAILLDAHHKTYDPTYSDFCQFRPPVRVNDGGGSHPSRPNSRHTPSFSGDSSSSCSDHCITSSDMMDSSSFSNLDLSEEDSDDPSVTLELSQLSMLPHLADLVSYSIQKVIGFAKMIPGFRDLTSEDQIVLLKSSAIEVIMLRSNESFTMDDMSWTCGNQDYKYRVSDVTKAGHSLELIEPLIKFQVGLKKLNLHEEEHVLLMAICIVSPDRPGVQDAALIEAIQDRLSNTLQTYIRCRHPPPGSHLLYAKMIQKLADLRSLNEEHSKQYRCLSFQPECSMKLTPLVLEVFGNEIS
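Two reagent solutions held at 4 deg C in the dark were dispensed, compounds pinned at 23 nl, and the mixture incubated 2 h at room temperature. Read-out: fluorescence polarization of VDR–SRC2-3 peptide binding.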
* hit, by the source's call; ? = inconclusive; & = joins results of further samples. % is set by controls: 0 for no effect and ±100 for the full control effect; potency is the fitted concentration of half-maximal effect.

SMILES	VDR inh
Cc1ccc(-c2csc(-c3c(N)c(C(=O)c4ccc5c(c4)OCO5)n4ccccc34)n2)cc1C	3%
COCc1cc(C)nc(SCC(=O)Nc2ccc(C)c(C)c2)c1C#N	-16%
CCCSC1=C(C#N)C(c2cc(OC)ccc2OC)CC(=O)N1 (stereo not given)	18%
COc1cc(C=Nc2cccc(C)c2)c(O)c([N+](=O)[O-])c1	-15%
Cc1cccc(C)c1OCc1n[nH]c(=S)o1	9%
COc1cccc(CN2C(=O)c3ccccc3Sc3ccc(C(=O)N(C)Cc4ccccc4)cc32)c1	-13%
O=C(NNc1ncnc2c1cnn2-c1ccccc1)c1cccc(Cl)c1	4%
Nc1ccn(-c2ncc(C(F)(F)F)cc2Cl)c(=O)n1	-10%
COc1ccc(-c2nc3ccccc3s2)cc1NC(=O)c1cccc([N+](=O)[O-])c1C	-6%
Cn1nccc1NC(=O)COCC(=O)O	-1%
O=C(NCc1ccc(Cl)cc1)c1cc([N+](=O)[O-])ccc1Cl	8%
CC(C)NC(=O)CSc1nc2sccc2c(=O)n1-c1ccccc1	-2%
COCCNC(=S)NCc1ccc2[nH]c3c(c2c1)CCCC3	13%
COC(=O)C1=C(Nc2ccccc2NS(=O)(=O)c2ccc(C(F)(F)F)cc2Cl)CSC1	8%
CCOC(=O)C(CC)n1cnc2c(nnn2-c2ccc(C)cc2)c1=O (stereo not given)	2%
COc1ccc(C(=O)NCc2ccc(-n3cccc3)cc2)cc1OC	28%
Cc1ccc(C)c(NC(=O)CN(C)C(=O)COc2ncnc3sccc23)c1	13%
CCOc1ccc(N2CC(C(=O)NCCc3ccc(F)cc3)CC2=O)cc1 (stereo not given)	-4%
O=C(Nc1csc(Cl)c1)c1ccccc1	10%
Cn1nnnc1SCC(=O)Nc1ccc2c(c1)OCCO2	2%
O=C(CCc1nc2ccccc2c(=O)[nH]1)Nc1cccc(S(=O)(=O)N2CCOCC2)c1	-9%
O=C(/C=C/c1ccccc1Cl)N(Cc1ccccc1)C1CCS(=O)(=O)C1 (stereo not given)	-11%
Cc1ccc(S(=O)(=O)N2CCCCC2)cc1NC(=O)c1cc(F)c(F)c(F)c1F	22%
COc1ccc(S(=O)(=O)n2c(C)nc3ccccc32)cc1C	-4%
COc1cc(C(=O)Nc2nnc(C(F)(F)F)s2)c([N+](=O)[O-])cc1OC	17%

As a short view, 6 of the compounds above:
SMILES	VDR inh
Cn1nnnc1SCC(=O)Nc1ccc2c(c1)OCCO2	2%
O=C(CCc1nc2ccccc2c(=O)[nH]1)Nc1cccc(S(=O)(=O)N2CCOCC2)c1	-9%
O=C(/C=C/c1ccccc1Cl)N(Cc1ccccc1)C1CCS(=O)(=O)C1 (stereo not given)	-11%
Cc1ccc(S(=O)(=O)N2CCCCC2)cc1NC(=O)c1cc(F)c(F)c(F)c1F	22%
COc1ccc(S(=O)(=O)n2c(C)nc3ccccc32)cc1C	-4%
COc1cc(C(=O)Nc2nnc(C(F)(F)F)s2)c([N+](=O)[O-])cc1OC	17%

Carrying on.
SMILES	VDR inh
CCOC(=O)N1CCN(CC(=O)Nc2ccc(OC)cc2)CC1	-10%
COc1ccc(C(=O)c2ccc([N+](=O)[O-])cc2)c(OC)c1OC	-2%
Cc1cccc(NC(=O)c2ccc3nccnc3c2)n1	-7%
CC(C)N(C(=O)[C@H]1C[C@H](CC(=O)NCCN2CCOCC2)C(=O)N2CCc3c([nH]c4cc(CCC(=O)N(C)C)ccc34)[C@]12C)C(C)C	-7%
CN(C(=O)c1ccncc1)c1ccccc1	4%
COc1ccc(C(=O)N(C)Cc2cnn(Cc3ccccc3)c2)cc1S(=O)(=O)N1CCOCC1	-1%
Cc1cccn2c(=O)nc(SCC(=O)N3N=C(c4cccs4)CC3c3ccc(F)cc3)nc12 (stereo not given)	-21%
COc1cccc(CC(NC(C)=O)C(=O)NC2CCN(C(=O)c3ccc(Cl)cc3)CC2)c1 (stereo not given)	-2%
CCOC(=O)C1=C(CSc2nc3ccccc3s2)NC(=O)NC1c1cccc([N+](=O)[O-])c1 (stereo not given)	-10%
Cc1ccc(NC(=O)c2oc3ccc(S(=O)(=O)N4CCOCC4)cc3c2C)cc1C	-4%
COc1ccc(C=O)cc1COc1ccc(F)cc1F	9%
O=C(NCC(=O)N1CCCCCCC1)c1ccccc1Cl	18%
O=C(O)c1nn2c(C(F)(F)F)cc(-c3cccs3)nc2c1Cl	16%
Cc1nc2ccccc2nc1N1CCC(C)CC1	1%
COc1cccc(-c2noc(COc3ccc(C(C)(C)C)cc3)n2)c1	4%
CCOc1cc2c(cc1OCC)CN(C(=O)c1cccc(S(=O)(=O)N3CCCC3)c1)CC2	-19%
Cc1cccc(-n2c(CCCN3C(=O)c4ccccc4C3=O)nc3ccccc3c2=O)n1	1%
Nc1[nH]ncc1-c1ccc(Cl)cc1	-30%
COc1ccc(O)c(C(=O)c2cc(SCC(=O)O)c3nc4sc5c(c4c(=O)n3c2)CCCC5)c1	-6%
Cc1ccc(S(=O)(=O)N2CCCC2C(=O)Nc2nc3c(s2)CCCC3)cc1 (stereo not given)	19%
Cc1ccc(NC(=O)NCCN2CCN(C(=O)Nc3ccc(C)cc3)CC2)cc1	3%
CCOC(=O)CSC(CC)C(=O)Nc1nnc(C(C)C)s1 (stereo not given)	-8%
CC(C)[C@H](NC(=O)c1cccc(S(=O)(=O)N2CCOCC2)c1)C(=O)Nc1nccs1	2%
CC(C)CCN1CN(S(=O)(=O)c2cccs2)c2nc3ccccc3nc21	-14%
CCN(Cc1ccccc1)C(=O)CSc1nc(C)cc2c1C(=O)OC2	-11%
SMILES	VDR inh
O=C(c1ccco1)N1CCN(C(=O)c2ccccc2OCc2ccc(Cl)cc2)CC1	-16%
CCOc1ccc(N2CC(c3nc4ccccc4n3CCOc3ccc(CC)cc3)CC2=O)cc1 (stereo not given)	18%
CCOC(=O)c1cc(-c2ccccc2)n(CCCC(=O)Nc2ccc(C)c(C)c2)c1C	17%
FC(F)(F)c1cc(-c2cccc(Br)c2)nc2ncnn12	-6%
CN(CCC(=O)Nc1ccc(Br)cc1)Cc1ccccc1	-1%
O=C(Nc1cccc(OC(=O)c2ccco2)c1)c1ccco1	4%
c1ccc(-c2nnc(-c3ccccn3)nc2NC2CCCCC2)cc1	-6%
COc1ccccc1/C=N/n1c(N)c(S(=O)(=O)c2cccs2)c2nc3ccccc3nc21	-5%
O=C(NCC(=O)N1CCN(S(=O)(=O)c2ccccc2F)CC1)c1ccc2ccccc2c1	-19%
CCOc1ccc(OCC)c(NC(=O)CSc2nc3c(c(=O)n(C)c(=O)n3C)n2C(C)C)c1	-15%
CCc1nn2c(=O)cc(COC(=O)c3ccc(NC(=O)C4CCCCC4)cc3)nc2s1	11%
Cc1ccccc1OCC(=O)Nc1ccccc1C(=O)N1CCCCC1	-10%
CCCCCCCCCCCCCC(=O)O	-1%
NC(=S)N=Nc1ccc(NN=C(N)N)cc1	18µM*
CCCSc1nnc(NC(=O)Nc2ccc(F)cc2)s1	-23%
CC(=O)Nc1cc2c(cc1C(=O)c1ccccc1)OCCO2	10%
Cc1nnc(SCC2=C(C(=O)O)N3C(=O)C(NC(=O)Cn4ncc(Cl)c4C)C3SC2)s1 (stereo not given)	1%
Cc1ccc(OCCC(=O)OCC(=O)NNC(=O)c2ccccc2)cc1	-14%
Cc1nc(S(=O)(=O)Cc2ccccc2)nc2c1CCC2	-14%
c1ccc2[nH]cnc2c1	2%
NC(=O)c1ccc(NC(=O)COC(=O)/C=C/c2cccs2)cc1	7%
CCN(CC(=O)Nc1ccc2c(c1)OCCO2)c1nc(-c2cccnc2)nc2ccccc12	21%
Cc1noc(COc2ccc(OCc3nc(C)no3)cc2)n1	10%
C=CCN1CC(O)=C(c2ccccc2)C1=N	9%
O=C(O)c1cc(-c2cccs2)nc2cc3c(cc12)OCCO3	?
SMILES	VDR inh
Cc1ccc(-n2ncc3c(NCc4ccco4)ncnc32)c(C)c1	-6%
c1ccc(-c2cn3c(n2)CCc2ccc4cccnc4c2-3)cc1	-30%
CCC(C(=O)NCc1ccco1)N(C(=O)CNS(=O)(=O)c1ccc(C)cc1)c1ccccc1F (stereo not given)	-8%
CCOc1ccc(Oc2c(/C=N/NC(C)=O)c(C)nn2-c2ccccc2)cc1	-2%
COc1ccc(CN2CCN(c3ccccc3OC)CC2)c(OC)c1	5%
O=c1c(-c2ccco2)[n+]([O-])c2ccccc2n1OCc1ccccc1F	2%
CCOC(=O)CSC(CC)C(=O)Nc1nnc(CC)s1 (stereo not given)	-6%
O=C(Nc1cccc(C(=O)N2CCOCC2)c1)C1CC1	-5%
CCCCN(CCCC)c1nc(-c2ccncc2)nc2ccccc12	-12%
COc1ccc(CNC(=O)c2cc3oc4ccccc4c3n2C)cc1OC	-8%
CN1CCN(C(=S)NC(=O)/C=C/c2cccs2)CC1	-16%
O=C(O)CC1(CC(=O)Nc2ccccc2C(=O)c2ccccc2)CCCC1	-6%
COc1cccc(N(CC(=O)NCCSc2ccccn2)S(=O)(=O)c2ccccc2)c1	18%
CN1CCN(S(=O)(=O)c2cccc(C(=O)Nc3ccccc3N3CCCC3)c2)CC1	-5%
O=C1C(c2[nH]c3ccc(S(=O)(=O)O)cc3c2O)=Nc2ccc(S(=O)(=O)O)cc21	?
CC1=C(C(=O)OC(C)(C)C)C(c2cccc3ccccc23)NC(=O)N1 (stereo not given)	9%
CCCOc1ccc(S(=O)(=O)n2cc(Br)c(=O)[nH]c2=O)cc1	-12%
O=C(CSc1ncnc2sc3c(c12)CCC3)N1CCOCC1	1%
O=S(=O)(NOCc1ccc(Cl)cc1)c1ccc(Cl)cc1	-5%
Cc1cc(SCC(=O)NCC2CCCO2)nc2ccccc12 (stereo not given)	-6%
COc1ccccc1-c1cc(=O)c2cccc(OC)c2o1	7%
CN(C)CCCN(C(=O)c1ccc2c(c1)OCCO2)c1nc2cc3c(cc2s1)OCO3	-12%
COc1ccc(Br)cc1CN(C)C(=O)c1ccccc1OCc1c(C)noc1C	10%
COCc1cccc(C(=O)NC(c2ccccc2)c2ccccc2)c1	-15%
Cc1cccc(C(=O)N[C@H](C(=O)OCc2cc(=O)n3c(n2)sc2ccccc23)C(C)C)c1	4%

VDR inh: what is marked active above
SMILES	VDR inh
NC(=S)N=Nc1ccc(NN=C(N)N)cc1	18µM*

Next section:
SMILES	VDR inh
O=C(CSc1ccc(Cl)cc1)NC1=NN(c2ccccc2)C(=O)C1	-6%
O=C(NCc1cccnc1)c1cccc(S(=O)(=O)N2CCCC2)c1	11%
COc1ccc(CCNc2nc3c(-c4cccc(C(F)(F)F)c4)nnn3c3ccccc23)cc1OC	-20%
O=C1NC(=S)SC1=Cc1ccccc1Br	?
CCCn1cc(CN2CCC(Cc3ccccc3)(C(=O)OCC)CC2)c(C)n1	-6%
CCN(CC)CCCNC(=O)c1cn(C)c2ccc(S(=O)(=O)N(C)C)cc2c1=O	-3%
Cc1ccc(-c2nnn(CC(=O)N3CCCCC3)n2)cc1	17%
O=C(COc1cccc(Br)c1)Nc1ccc(Cl)c(S(=O)(=O)N2CCOCC2)c1	23%
Cc1c(Cl)c(C(=O)NNC(=S)NCc2ccco2)nn1C	16%
[N-]=[N+]=CC(=O)C(O)(c1ccccc1)C(Cl)c1ccccc1 (stereo not given)	0%
Cc1[nH]c(C)c(S(=O)(=O)NCc2ccc(Cl)cc2)c1C(=O)N1CCCC1	17%
COc1ccc(NC(=O)CSc2nc(C)cc(C)n2)cc1	-12%
O=C(c1ccco1)N1CCN(c2ncnc3scc(-c4ccc(F)cc4)c23)CC1	15%
Cc1ccc(CN(Cc2ccccc2)C(=S)NCC(=O)NCc2cccnc2)o1	-14%
COc1ccccc1CNC(=O)C(Cc1ccccc1)NC(=O)c1ccccc1 (stereo not given)	5%
COc1cc(CCC(=O)Nc2cccc(C(F)(F)F)c2)cc(OC)c1OC	-11%
O=C(CCNS(=O)(=O)c1ccc(Cl)cc1)Nc1ccncc1	5%
CCOC(=O)N1CCC2(CC1)C(C#N)=C(N)Oc1c2c(C)nn1-c1cccc(Cl)c1	-1%
O=C(O)CCC(NS(=O)(=O)c1ccc(-c2ccccc2)cc1)C(=O)O (stereo not given)	1%
C/C(=N/NC(=O)CNC(=O)c1ccccn1)c1ccccc1	-6%
COc1ccc(C(=O)N[C@H](C(=O)Nc2ccc(S(=O)(=O)N3CCOCC3)cc2)C(C)C)cc1	13%
COCc1ccc([C@@H]2C[C@H]3CN(Cc4cccnc4)C(=O)[C@]34CCCN24)o1	-18%
Cc1ccc(NC(=S)Nc2c(C)n(C)n(-c3ccccc3)c2=O)cc1	0%
Cc1ccccc1C(=O)N1CCC(C(=O)Oc2ccc(C#N)cc2)CC1	28%
CCc1ccccc1Oc1coc2cc(O)ccc2c1=O	3%

Another view of some results above.
VDR inh	Compound
18%	CCCSC1=C(C#N)C(c2cc(OC)ccc2OC)CC(=O)N1 (stereo not given)
-15%	COc1cc(C=Nc2cccc(C)c2)c(O)c([N+](=O)[O-])c1
9%	Cc1cccc(C)c1OCc1n[nH]c(=S)o1

Further records
SMILES	VDR inh
CCOC(=O)C1(CCCc2ccccc2)CCN(C(=O)CCn2cncn2)CC1	-6%
OC(CNCc1ccccc1)COc1ccccc1 (stereo not given)	-2%
COc1ccc(CCC(=O)N(c2nnc(-c3cccnc3)s2)C(C)C)cc1	-8%
Cc1ccc(Cl)cc1NC(=O)CC1Sc2ccccc2NC1=O (stereo not given)	-20%
CCc1nc(SCC(=O)c2cc(C)ccc2C)n[nH]1	?
COc1ccccc1N1CCN(CC(O)COc2cccc3ccccc23)CC1 (stereo not given)	2%&-14%&-20%&-4%

Retrieved one by one from the entries so far (2):
SMILES	VDR inh
CCOC(=O)C1(CCCc2ccccc2)CCN(C(=O)CCn2cncn2)CC1	-6%
COc1ccccc1N1CCN(CC(O)COc2cccc3ccccc23)CC1 (stereo not given)	2%&-14%&-20%&-4%

This is a subset (hit frequency here may not be typical).
